# Screens: PubChem BioAssay, National Center for Advancing Translational Sciences (NCATS)
# CRE Fsk mod: modulators of forskolin-stimulated CRE signaling in CHO cells; Potency, µM (top dose mostly 38.2 µM), for inactives: at the top dose activity change, negative = inhibition, usual class: activators; AID 662; CHO CRE-bla reporter (cAMP response element driving beta-lactamase), forskolin EC10, beta-lactamase ratio; 71,000 compounds, 2.5% hits; active = well fitted activation curve with a large enough effect in the signal ratio, with a control signal flat, not every such curve was filed as active; inconclusive = small, poorly fitted or top-dose-only effect, or effect the other way, or a change in a side signal; the % refers to the signal ratio; also: potency is read from the fitted curve at half-maximal effect; % of control where 0% means no effect
#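 Modulation of forskolin-driven signalling is measured in CHO cells carrying a CRE-controlled beta-lactamase reporter. Cells are stimulated with EC10 NKH 477 in the presence of titrated compound for 3 h at 37 °C, then loaded with CCF4 for 2 h at room temperature.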
# DNA Pol III inh: inhibitors of bacterial DNA polymerase III holoenzyme. Potency, µM (series often up to 57.1 µM), inactives show top-dose activity change, negative = inhibition. reconstituted DNA polymerase III holoenzyme replication, biochemical. 71,000 compounds, 0.25% hits; also: potency is read from the fitted curve at half-maximal effect; % is scaled to controls: 0 for no effect and ±100 for the full control effect
#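 Reconstituted *E. coli* holoenzyme (0.35 nM Pol III, 1 nM beta, 154 nM SSB, 2 nM primase) was preincubated with compound for 15 min at RT. Synthesis on 1.4 nM ssM13Gori ran 35 min, then was stopped with PicoGreen/EDTA and read as dsDNA fluorescence.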
# BRCT PPI red: inhibitors of human BRCA1 BRCT-phosphoprotein interaction (red fluorophore); 75,000 compounds, 0.03% hits; AID 892; Potency, µM (top dose mostly 76.9 µM), for inactives: at the highest dose activity change, negative = inhibition, most hits filed as inhibitors; BRCT-phosphopeptide binding, red fluorescence polarization; P38398; also: % is scaled to controls: 0 for no effect and ±100 for the full control effect
# Target sequence (P38398 whole entry, looked up): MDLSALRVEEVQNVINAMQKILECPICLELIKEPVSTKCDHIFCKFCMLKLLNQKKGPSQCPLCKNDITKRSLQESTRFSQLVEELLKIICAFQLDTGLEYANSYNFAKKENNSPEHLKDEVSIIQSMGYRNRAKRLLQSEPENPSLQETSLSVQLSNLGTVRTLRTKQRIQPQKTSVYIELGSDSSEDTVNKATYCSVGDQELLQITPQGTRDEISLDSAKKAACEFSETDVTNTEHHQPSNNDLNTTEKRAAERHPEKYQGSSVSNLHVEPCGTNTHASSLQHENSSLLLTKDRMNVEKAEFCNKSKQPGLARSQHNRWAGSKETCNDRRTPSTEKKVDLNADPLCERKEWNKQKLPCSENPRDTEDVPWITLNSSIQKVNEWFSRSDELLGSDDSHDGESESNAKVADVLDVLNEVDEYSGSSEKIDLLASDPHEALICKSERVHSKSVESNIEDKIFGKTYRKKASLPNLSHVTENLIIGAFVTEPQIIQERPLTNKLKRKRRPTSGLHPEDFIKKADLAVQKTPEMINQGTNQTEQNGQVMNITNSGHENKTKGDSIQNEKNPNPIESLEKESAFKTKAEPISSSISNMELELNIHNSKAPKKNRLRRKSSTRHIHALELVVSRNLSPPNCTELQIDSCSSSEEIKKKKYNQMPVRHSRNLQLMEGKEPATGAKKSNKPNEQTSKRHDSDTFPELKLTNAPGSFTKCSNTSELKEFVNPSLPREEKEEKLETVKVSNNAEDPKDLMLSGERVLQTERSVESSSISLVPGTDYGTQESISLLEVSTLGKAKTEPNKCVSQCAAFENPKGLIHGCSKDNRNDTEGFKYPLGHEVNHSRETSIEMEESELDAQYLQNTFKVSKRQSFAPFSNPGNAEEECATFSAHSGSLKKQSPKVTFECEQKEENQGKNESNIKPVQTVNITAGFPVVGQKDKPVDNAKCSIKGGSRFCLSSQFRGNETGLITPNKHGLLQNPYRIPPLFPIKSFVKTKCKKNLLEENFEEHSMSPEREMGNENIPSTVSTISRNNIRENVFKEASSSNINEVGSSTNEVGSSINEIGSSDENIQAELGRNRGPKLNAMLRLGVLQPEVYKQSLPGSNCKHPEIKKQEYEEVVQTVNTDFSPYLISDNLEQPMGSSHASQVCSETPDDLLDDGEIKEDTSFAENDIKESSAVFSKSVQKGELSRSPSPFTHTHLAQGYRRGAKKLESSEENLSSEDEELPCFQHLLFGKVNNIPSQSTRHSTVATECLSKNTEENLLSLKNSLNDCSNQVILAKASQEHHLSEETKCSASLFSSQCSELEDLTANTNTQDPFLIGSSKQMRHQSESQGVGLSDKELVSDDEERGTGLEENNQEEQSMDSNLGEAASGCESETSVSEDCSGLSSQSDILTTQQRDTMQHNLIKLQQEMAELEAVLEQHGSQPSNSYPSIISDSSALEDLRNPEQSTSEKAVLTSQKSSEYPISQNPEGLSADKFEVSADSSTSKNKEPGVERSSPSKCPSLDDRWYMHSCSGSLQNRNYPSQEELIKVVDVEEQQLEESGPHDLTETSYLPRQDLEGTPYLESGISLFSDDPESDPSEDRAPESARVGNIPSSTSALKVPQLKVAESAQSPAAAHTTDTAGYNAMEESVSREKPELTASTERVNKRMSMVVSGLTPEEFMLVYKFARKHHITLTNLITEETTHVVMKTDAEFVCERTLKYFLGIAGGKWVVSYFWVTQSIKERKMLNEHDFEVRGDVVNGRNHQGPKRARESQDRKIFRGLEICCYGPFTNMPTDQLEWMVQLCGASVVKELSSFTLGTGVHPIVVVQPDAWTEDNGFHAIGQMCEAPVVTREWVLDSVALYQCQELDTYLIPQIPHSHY
#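 Rhodamine-labelled pBACH1 10-mer (100 nM) bound to BRCT domain (100 nM) at pH 7.3; compounds incubated 12 min room temperature, polarization read. Free peptide defines full inhibition; unlabelled decapeptide titrated as control.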
# 15-hLO inh: 15-hLO (ALOX15) enzyme inhibition; P16050; purified 15hLO-1, xylenol orange hydroperoxide absorbance; Potency, µM (series often up to 57.1 µM), without a hit: at the highest dose activity change, negative = inhibition, most hits filed as inhibitors; 74,000 compounds, 1.4% hits; AID 887; also: potency is read from the fitted curve at half-maximal effect; % is scaled to controls: 0 for no effect and ±100 for the full control effect; nearly all actives have a fitted effect of over 55% in size
#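 Compounds were preincubated 15 min at room temperature with 40 nM purified human enzyme (25 mM Hepes pH 7.5, 0.01% Triton X-100); 50 uM arachidonic acid reacted 6 min. Fe-xylenol orange detection, 30 min, absorbance ratio 573/405 nm.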
# BRCT PPI green: blocks human BRCA1 BRCT binding to phosphopeptide, green readout; 75,000 compounds, 0.05% hits; BRCA1 BRCT-phosphopeptide binding, green fluorescence polarization; Potency, µM (titrated, usually from 76.9 µM), inactives show at the highest dose activity change, negative = inhibition, hits mostly inhibitors;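 also: potency is read from the fitted curve at half-maximal effect; plate controls were peptide without protein for full effect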
#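 Fluorescence polarization: His-tagged BRCT (~35 kDa BRCA1 C-terminus, 250 nM) bound to 100 nM fluorescein-labeled phosphorylated 10-aa BACH1 peptide, pH 7.3 phosphate buffer with DTT and Tween 20. Compounds incubated 12 min at room temperature; inhibition read as lowered polarization.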
# GFP derepression: epigenetic modulators derepressing GFP locus in mouse cells | mouse C127i GFP locus derepression, cytometry, 30 h | Potency, µM (top dose mostly 46.1 µM), inactives show at the top dose GFP derepression (activation) | 68,000 compounds, 0.09% hits | AID 597; also: % of control where 0% means no effect
#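 Read-out is the number of GFP-positive cells, scored as fluorescent objects 20 to 120 um wide, reflecting derepression of a silenced CMV-GFP reporter in murine C127i cells after 30 h compound exposure at 37 C.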
# UbGFP stabilizer: ubiquitin-GFP accumulation via proteasome inhibition; Ubiquitin-GFP reporter cells, proteasome inhibition, GFP fluorescence; response scale: untreated = 0%, 10 µM MG-132 = 100%; Potency, µM (top dose mostly 45.9 µM), for the others: top-dose activation (GFP accumulation), hits mostly activators; 67,000 tested, under 10 active; active = well fitted activation curve with a large enough effect, not every such curve was filed as active; inconclusive = small, poorly fitted or top-dose-only effect, or another doubt; inactive = no such curve, though single readings can be large or run the other way; also: potency is read from the fitted curve at half-maximal effect
#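 U2OS cells stably expressing ubiquitin(G76V)-GFP, seeded overnight in 0.5% FBS medium, were exposed to compounds (qHTS, 46 uM to 2.9 nM) for 4 hr at 37 °C. GFP-positive cells were counted by laser cytometry (488 ex/515 em), normalized between basal and 10 uM MG-132.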
# HBB splice mod: hemoglobin beta splicing modulation; HBB splicing reporter cell assay, activation; EGFP reporter with mutant IVS2-654 intron; response scale: normalised to 500 nM splice-correcting PNA; Potency, µM (doses to about 46.1 µM), for the others: at the top dose activation, hits mostly activators; 65,000 compounds, 0.06% hits; AID 925; also: potency is read from the fitted curve at half-maximal effect; 0% is about no effect
#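 Compounds were applied for 2 days to HeLa EGFP-654 cells, 500/well in Optimem with 2% FCS. The reporter's EGFP is disrupted by mis-splicing of beta-globin intron IVS2-654. Readout: summed well GFP fluorescence from 488 nm laser scanning; reference was 500 nM antisense […] 654 PNA.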
# * marks the source's active call; other numbers are inactive results; ? = inconclusive; . = no result given; [ ] = remark or other dose. Unless noted, calls follow the shape of the dose curve; as a rule, active = well fitted curve in the direction sought with a large enough effect; inconclusive = small, poorly fitted or top-dose-only effect, or another doubt; inactive = no such curve, though single readings can be large; an effect the other way counts as inactive or inconclusive.
# Labels used below – A = CRE Fsk mod; B = DNA Pol III inh; C = BRCT PPI red; D = 15-hLO inh; E = BRCT PPI green; F = GFP derepression; G = UbGFP stabilizer; H = HBB splice mod
COC(=O)CCC(=O)Nc1ccc(S(=O)(=O)N2CCCCCC2)cc1
  A = ? | B = -3% | C = -0.5% | D = -1% | E = -2.5% | F = 0% | G = 4% | H = 11%

Cc1sc2ncnc(Sc3nnc4sc5ccccc5n34)c2c1C
  A = -18% | B = 0% | C = -0.3% | D = 2% | E = -1.4% | F = 0% | G = 9% | H = 0.9%

Cc1noc(C)c1-c1cncnc1NCCN1CCOCC1
  A = 3% | B = -4% | C = -1.4% | D = ? | E = -3.0% | F = 0%[9.22 µM] | G = -2% | H = 0.5%

COC(=O)c1nnn(CC(=O)Nc2cccc(OC)c2)c1C(=O)OC
  A = -4% | B = -3% | C = 0.1% | D = -6% | E = -1.0% | F = 2% | G = 2% | H = 0.6%

O=C(Cc1cccs1)Nc1ccon1
  A = -5% | B = -7% | C = -0.6% | D = 7% | E = -0.4% | F = 0% | G = 0% | H = -1.2%

N#Cc1c(NC(=O)CSCC(=O)O)sc2c1CCCC2
  A = -3% | B = -1% | C = 1.0% | D = 1% | E = -0.5% | F = 3% | G = 1% | H = .

O=C(Cn1cnc2sc(-c3ccccc3)cc2c1=O)N1CCOCC1
  A = ? | B = -5% | C = -2.5% | D = 2% | E = 0.7% | F = 4% | G = -5% | H = 0.1%

Cc1cccc(Cn2c(=O)n(Cc3ccco3)c(=O)c3ccccc32)c1
  A = ? | B = 3% | C = -0.4% | D = -15% | E = 0.5% | F = -2% | G = -1% | H = -2.2%

COc1ccccc1OCc1nnc(SCC(=O)Nc2ccc(C)cc2)n1C
  A = -4% | B = 9% | C = -0.4% | D = -15% | E = -2.8% | F = 0% | G = 5% | H = 1.0%

Cc1cccc2cc3c(NC(=O)C(C)C)nn(C)c3nc12
  A = 3.2µM* | B = -2% | C = 1.3% | D = -10% | E = -1.9% | F = -4% | G = 4% | H = 4.3%[57.5 µM]

# Next part
# Labels used below – A = CRE Fsk mod; B = DNA Pol III inh; C = BRCT PPI red; D = 15-hLO inh; E = BRCT PPI green; F = GFP derepression; G = UbGFP stabilizer; H = HBB splice mod
O=C1CC(NCc2ccco2)C(=O)N1CCc1ccccc1 (stereo not drawn)
  A = 3% | B = 0% | C = 2.8% | D = 0% | E = -1.0% | F = -3% | G = 2% | H = 1.2%

COc1ccc(Nc2ncccc2C(=O)Nc2ccccc2)cc1
  A = -10% | B = -1% | C = 0.7% | D = -13% | E = 0.7% | F = 0% | G = 1% | H = 3.9%

COc1ccc(N2C(=O)C(Cl)=C(N(CCO)Cc3ccccc3)C2=O)cc1
  A = -12% | B = -6% | C = -0.4% | D = -7% | E = -0.7% | F = -3% | G = 7% | H = .

COc1ccccc1NC(=O)C1=C(C)Nc2nnnn2C1c1cccc(Br)c1 (stereo not drawn)
  A = ? | B = -1% | C = -0.5% | D = ? | E = -6.4% | F = -1% | G = ? | H = -3.3%

NC(=O)C1CCN(Cc2nnnn2Cc2ccco2)CC1
  A = 6% | B = -1% | C = -1.8% | D = 14% | E = 2.1% | F = 0% | G = -2% | H = .

CCc1nc(NCCc2ccccn2)c2nnn(Cc3ccccc3F)c2n1
  A = ? | B = 3% | C = -3.8% | D = -23% | E = 1.5% | F = 0% | G = 2% | H = .

CCCCSc1nnc(-c2ccc(C)cc2)o1
  A = ? | B = 4% | C = -0.4% | D = -3% | E = -2.5% | F = -5% | G = -7% | H = 0.0%

Cc1ccc(-c2cc(C(=O)N3CCN(c4ncccn4)CC3)c3ccccc3n2)cc1
  A = 9% | B = 4% | C = 1.1% | D = ? | E = 2.2% | F = 2% | G = -2% | H = -2.1%

COC(=O)c1nnn(CC(=O)Nc2cccc(Cl)c2)c1C(=O)OC
  A = -16% | B = 0% | C = 0.5% | D = 7% | E = -1.2% | F = 2% | G = -2% | H = -0.7%

COCCCn1c(SCC(=O)N2CC(=O)Nc3ccccc32)nnc1-c1ccoc1C
  A = 0% | B = -8% | C = -3.5% | D = 21% | E = -1.2% | F = -1% | G = 6% | H = .

# Next records follow:
# Labels used below – A = CRE Fsk mod; B = DNA Pol III inh; C = BRCT PPI red; D = 15-hLO inh; E = BRCT PPI green; F = GFP derepression; G = UbGFP stabilizer; H = HBB splice mod
Cc1cc(C(F)(F)F)nc(SCc2ccc(C(=O)O)o2)n1
  A = ? | B = -8% | C = 0.0% | D = -7% | E = -0.3% | F = -3% | G = -4% | H = -0.4%

COCCn1c(N)c(C(=O)Nc2sc3c(c2C(=O)OC)CCCC3)c2nc3ccccc3nc21
  A = 7% | B = -2% | C = 0.0% | D = 7% | E = 6.1% | F = 2% | G = -5% | H = 0.3%[57.5 µM]

Clc1ccccc1-c1nc(-c2ccccc2)n[nH]1
  A = -4% | B = 0% | C = -2.5% | D = -14% | E = -1.8% | F = 1% | G = 2% | H = -0.3%[57.5 µM]

CCOC(=O)CSc1nc(C)c2cc(OC)ccc2n1
  A = -2% | B = 1% | C = -1.1% | D = -1% | E = 1.3% | F = -3% | G = -3% | H = -1.1%

CC(C)(C)Cc1nc(-c2ccccn2)no1
  A = 0% | B = -2% | C = -0.7% | D = 9% | E = -1.8% | F = 4% | G = -2% | H = 2.0%

O=C(O)c1ccc(NS(=O)(=O)c2ccc(Cl)cc2)cc1
  A = 1% | B = -5% | C = -1.0% | D = -2% | E = -4.0% | F = -5% | G = 0% | H = -1.0%

O=C(CN1CCOCC1)Nc1c2c(nc3ccccc13)N(Cc1ccccc1)CC2
  A = 0% | B = -1% | C = 0.2% | D = -16% | E = -4.2% | F = 0% | G = 0% | H = 2.8%

Cc1ccc(-c2nnc(-c3ccc(NC(=O)c4ccco4)cc3)o2)cc1
  A = -7% | B = -8% | C = 0.7% | D = -6% | E = -0.2% | F = 7% | G = -1% | H = 1.0%

# Of the compounds above, these contain an aryl methoxy group.
# Labels used below – A = CRE Fsk mod; B = DNA Pol III inh; C = BRCT PPI red; D = 15-hLO inh; E = BRCT PPI green; F = GFP derepression; G = UbGFP stabilizer; H = HBB splice mod
COC(=O)c1nnn(CC(=O)Nc2cccc(OC)c2)c1C(=O)OC
  A = -4% | B = -3% | C = 0.1% | D = -6% | E = -1.0% | F = 2% | G = 2% | H = 0.6%

COc1ccccc1OCc1nnc(SCC(=O)Nc2ccc(C)cc2)n1C
  A = -4% | B = 9% | C = -0.4% | D = -15% | E = -2.8% | F = 0% | G = 5% | H = 1.0%

COc1ccc(Nc2ncccc2C(=O)Nc2ccccc2)cc1
  A = -10% | B = -1% | C = 0.7% | D = -13% | E = 0.7% | F = 0% | G = 1% | H = 3.9%

COc1ccc(N2C(=O)C(Cl)=C(N(CCO)Cc3ccccc3)C2=O)cc1
  A = -12% | B = -6% | C = -0.4% | D = -7% | E = -0.7% | F = -3% | G = 7% | H = .

COc1ccccc1NC(=O)C1=C(C)Nc2nnnn2C1c1cccc(Br)c1 (stereo not drawn)
  A = ? | B = -1% | C = -0.5% | D = ? | E = -6.4% | F = -1% | G = ? | H = -3.3%

CCOC(=O)CSc1nc(C)c2cc(OC)ccc2n1
  A = -2% | B = 1% | C = -1.1% | D = -1% | E = 1.3% | F = -3% | G = -3% | H = -1.1%

# An excerpt. The share of hits here may be higher or lower than overall.
